VACV mCherry inh: inhibitors of vaccinia virus infection (mCherry reporter signal); Vaccinia virus mCherry reporter infection, fluorescence; about a quarter of the inactives have no number; Potency, µM (series often up to 36.5 µM), inactives show top-dose activity change, negative = inhibition, usual class: inhibitors; actives 0.63% (n = 310,000); AID 720579; active = well fitted inhibition curve with a large enough effect; inconclusive = small, poorly fitted or top-dose-only effect; inactive = no such curve, though single readings can be large or run the other way; tested in A549 cells; also: nearly all actives have a fitted effect of over 35% in size; inactives centre near -10
VACV Venus inh: inhibitors of vaccinia virus (Venus reporter). Potency, µM (top dose mostly 36.5 µM), for the others: at the top dose activity change, negative = inhibition, actives largely listed as inhibitors. Vaccinia virus Venus reporter expression, fluorescence. actives 0.46% (n = 330,000); active means well fitted inhibition curve with a large enough effect; inconclusive means small, poorly fitted or top-dose-only effect; inactive means no such curve, though single readings can be large or run the other way; tested in A549 cells; also: nearly all actives have a fitted effect of over 30% in size; inactives centre near -10
* marks the source's active call; other numbers are inactive results; i = inactive; ? = inconclusive; . = no result given; [ ] = another dose, or the depositor's remark. % is scaled to controls: 0 for no effect and ±100 for the full control effect; potency is read from the fitted curve at half-maximal effect.

SMILES	VACV mCherry inh	VACV Venus inh
CC(C)(C)c1ccc(C(=O)NCC(=O)NCC(C)(C)N2CCOCC2)cc1	-15%	-10%
N#CCCN1CCN(C(=S)c2ccc(-c3cc(Cl)ccc3Cl)o2)CC1	-28%	-21%
Cc1ccc(N(C(=O)CNC(=O)c2ccco2)C(C(=O)NC2CCCCC2)c2cccnc2)cc1 (stereo unspecified)	i	-7%
COC(=O)CC1C(=O)NCCN1C(=S)Nc1cccc(C)c1 (stereo unspecified)	-8%	-8%
CCOC(=O)c1ccc(NC(=O)c2ccc[n+]([O-])c2)cc1	-16%	-19%
O=S(=O)(c1cccs1)N1CCC2(CC1)OCCN2S(=O)(=O)c1ccccc1	1%	-12%
O=C(CN(CCc1ccccc1)C(=O)CNS(=O)(=O)c1ccc(F)cc1)NCc1ccco1	.	-18%
CCCN(C(=O)c1c(C)oc2ncn(CC(C)C)c(=O)c12)c1ccccc1C	-1%	-12%
COC(=O)c1ccccc1Sc1ncnc2onc(C)c12	-20%	-4%
CCN(CC)c1ccc(S(=O)(=O)N2CCOCC2)cc1NC(=O)COC(=O)/C=C/c1ccc(O)c(OC)c1	-2%	-12%
CC(Sc1nnc(-c2cccs2)n1C1CC1)C(=O)NCC1CCCO1 (stereo unspecified)	-3%	-6%
CN(C(=O)CSc1nc2ccccc2n1CC(=O)N(C)C1CCCCC1)c1ccc(F)cc1	-1%	-5%
O=C(Cn1cnc2c(cnn2-c2ccccc2)c1=O)N1CCN(c2ccc(F)cc2)CC1	-9%	-12%
O=C(Cn1nnc(-c2ccccc2)n1)N/N=C/c1cccc([N+](=O)[O-])c1O	-9%	-15%
CC(=O)c1ccc(Nc2nc(C(N)CC(C)C)cs2)cc1 (stereo unspecified)	?	-25%
Cc1ccc(S(=O)(=O)N2CCN(C(=O)CN3C(=O)c4ccc([N+](=O)[O-])cc4C3=O)CC2)c(C)c1	i	-18%
CCOC(=O)c1ccc(NC(=O)c2nc(SCc3ccc(F)cc3)ncc2Cl)cc1	-11%	-6%
CN(CC/C=C1/c2ccccc2CSc2ccccc21)CCCO	i	-18%
CCCCOC(=O)C1=C(C)NC2=C(C(=O)CCC2)C1c1cc(OC)ccc1OC (stereo unspecified)	-5%	0%
C=CCNC(=O)c1onc(CSc2ccc(C)c(C)c2)c1C(=O)O	-10%	-13%
Cc1cnccc1CN(C)Cc1nc(Cc2ccccc2Cl)no1	-16%	-15%
CCc1nnc(NC(=O)COC(=O)CN2C(=O)c3ccccc3C2=O)s1	.	10%
CCc1sc(N(C(=O)Cc2ccccc2)c2ccccc2F)nc1-c1ccc(C)cc1	-2%	-11%
Cc1ccccc1CN(C)Cc1cc(=O)oc2c(C)c(C)ccc12	-28%	-6%
CC1CCc2nn(CC(=O)NCCCN3CCCCC3)cc2C1 (stereo unspecified)	-8%	-4%
More results:
SMILES	VACV mCherry inh	VACV Venus inh
O=C(O)c1ccccc1C(=O)NC1CCCCNC1=O (stereo unspecified)	-4%	-18%
COc1ccc(OC)c(S(=O)(=O)N2CCC(C(=O)Nc3ccccc3)CC2)c1	-18%	-21%
CCN=C1NN=C(c2c[nH]c3ccccc23)CS1	-9%	-9%
Cc1cc(O)c(C(C)C)cc1N=C1CSC(=O)N1	-13%	-5%
CCn1cc(/C=C/C(=O)Nc2ccc(C)cc2Br)cn1	-17%	-6%
Cc1ccc(S(=O)(=O)N2C[C@H]3C(=O)C[C@@H](c4ccc(Cl)cc4)N(S(=O)(=O)c4ccc(C)cc4)[C@H]3C[C@H]2c2ccc(Cl)cc2)cc1	21%	0%
Cc1ccc(-c2cc(C(=O)Oc3ccccc3)c3cccc(C)c3n2)cc1	-6%	-5%
CC(C)(C)n1nnnc1C(c1ccccc1)N1CCN(c2ncccn2)CC1 (stereo unspecified)	i	-6%
CN(C)Cc1csc(Nc2ccc(C(=O)c3ccccc3)cc2)n1	-27%	-15%
CC(C)(C)C1CCc2c(sc3nc(SCC(=O)O)nc(N)c23)C1 (stereo unspecified)	i	3%
COC(=O)NNC(=O)C12CC3CC(CC(C3)C1)C2	-12%	-18%
CCOC(=O)CC1=NN(c2ccccc2)C(=O)C1=c1sc(=C2SC(C)=C(C)N2CC)c(=O)n1CC	i	-6%
COc1ccc(-n2ccnc(NCc3ccccc3Cl)c2=O)cc1OC	-4%	-8%
CCN(c1ccccc1)S(=O)(=O)c1cc(NC(=O)Nc2ccccc2C#N)ccc1Cl	?	-29%
Cc1cn(CC(=O)NCc2ccc(N(C)C)cc2)c(=O)[nH]c1=O	i	1%
CC1(C)CC(=NO)CC(C)(C)N1	-7%	-6%
COC(=O)C1=C(c2ccc(-c3ccccc3)c(F)c2)C[C@@H]2CC[C@H]1N2C(=O)NCc1ccc(F)cc1	-28%	?
FC(F)(F)c1ccccc1-c1cncnc1Nc1ccccc1	i	0%
Cc1ccc(CNC(=O)Nc2cc(C(=O)NCc3ccc(C(C)C)cc3)ccc2N2CCCC2)cc1	-15%	-28%
O=C1CSC(=S)N1c1cccc(Br)c1	14%	9%
CCCc1cc(=O)oc2cc(OCC(=O)NCCc3c[nH]c4ccc(OC)cc34)ccc12	-7%	-1%
CC(=O)Nc1ccccc1NC(=O)c1ccc2c(c1)OCO2	i	-1%
Cc1ccccc1-n1c(O)cc(=O)[nH]c1=S	i	1%
CCOC(=O)CN1C(=N)N(c2nc(NC(C)C)nc(NC(C)C)n2)CC1=O	-11%	-7%
O=C(N/N=C/c1cc2c(cc1Br)OCO2)C1COc2ccccc2O1 (stereo unspecified)	i	-5%

For convenience, some entries already given.
SMILES	VACV mCherry inh	VACV Venus inh
CCOC(=O)CN1C(=N)N(c2nc(NC(C)C)nc(NC(C)C)n2)CC1=O	-11%	-7%
O=C(N/N=C/c1cc2c(cc1Br)OCO2)C1COc2ccccc2O1 (stereo unspecified)	i	-5%

Continued.
SMILES	VACV mCherry inh	VACV Venus inh
CC(C)NC(=O)C1CCN(c2nc3ccccc3nc2C(F)(F)F)CC1	-10%	-16%
COc1ccc(C)cc1NC(=O)c1ccc(NS(=O)(=O)c2cccs2)cc1	-17%	-12%
CCOC(=O)c1ccc(NC(=O)CCCc2nc(-c3ccccc3Cl)no2)cc1	2%	-5%
Cc1nc2ccccc2c(C)c1CC(=O)OC(C)C(=O)NC1(C#N)CCCCC1 (stereo unspecified)	-1%	-4%
CCOC(=O)C1=C(COc2ccccc2)NC(=O)NC1c1ccc2ccccc2c1 (stereo unspecified)	-4%	?
O=S(=O)(NCc1cccnc1)c1ccc(Cl)c(Cl)c1	-5%[1.46 µM]	-17%
O=C(CCn1c(=O)sc2ccccc21)NC1=NCCS1	i	-11%
NC(=O)c1cc([N+](=O)[O-])ccc1NCc1ccc(N)cc1	i	-9%
CCCN1CC=C2C(C#N)=C(N)C(C#N)(C#N)C(c3cccc(OC)c3OC)C2C1 (stereo unspecified)	i	1%
CCC1(C2CCN(C(=O)c3cc4ccccc4o3)CC2)NC(=O)N(CCc2scnc2C)C1=O (stereo unspecified)	-18%	-10%
O=C(O)CCCSc1nccn1-c1ccccc1	i	-1%
Cc1ccc(CN2CCN(Cc3cccc(OCCO)c3)CC2CCO)o1 (stereo unspecified)	-7%	-8%
CC(=O)NC(C(=O)c1ccccc1)N1CCCCC1 (stereo unspecified)	-19%	5%
Cn1cc(S(=O)(=O)N2CCOCC2)cc1C(=O)O	-1%	-1%
CC1CCN(C(=S)NC(=O)c2ccccc2Br)CC1	i	-7%
CCCCNc1ccc(C(F)(F)F)cc1S(=O)(=O)NCCc1ccc(F)cc1	-2%	-1%
COc1ccc(N2CCN(C(=O)c3cn(C)c4ccc(S(=O)(=O)N5CCOCC5)cc4c3=O)CC2)cc1	-6%	1%
COCCN(C(=O)c1ccc(C)o1)c1c(N)n(CC(C)C)c(=O)[nH]c1=O	-18%	-14%
COCCN1Cc2cc(=O)n3c([nH]c4ccccc43)c2C1=N	i	-9%
CC1CC1C(=O)Nc1nc(-c2ccc(Cl)s2)cs1 (stereo unspecified)	?	-24%
Oc1ccccc1-c1nnc2n1CCCCC2	-3%	0%
O=C(Nc1nnc(SCc2c(Cl)cccc2Cl)s1)c1cccc([N+](=O)[O-])c1	-25%	8%
Cc1ccc(-n2nc(C)c3c(C)cc(=O)n(CC(=O)Nc4ccc(C(C)C)cc4)c32)cc1	-11%	-4%
CS(=O)(=O)N(CCc1ccccc1)CC(=O)NCc1ccco1	-21%[1.46 µM]	-10%
Cc1ccc2[nH]c(CNC(=O)c3ccc(F)cc3)cc2c1	-16%	-7%
Continuation.
SMILES	VACV mCherry inh	VACV Venus inh
CC(C)(C)c1ccc(C2Sc3ccccc3NC3=C2C(=O)c2ccccc23)cc1 (stereo unspecified)	-8%	-5%
COc1ccc(C(=O)Nc2ccc(-c3nnc4n3CCCCC4)cc2)cc1OC	10%	10%
CCOc1ccc(N2C(=O)CC(NCCNc3ccc([N+](=O)[O-])cn3)C2=O)cc1 (stereo unspecified)	-13%	-1%
Nc1nc(CSc2nc3ccccc3s2)nc(N2CCCCC2)n1	.	-22%
CC(NC(=O)CSc1n[nH]c(-c2ccccc2Cl)n1)c1nc2ccccc2[nH]1 (stereo unspecified)	-16%	-6%
C=C(C)COc1ccc2c(C)c(C)c(=O)oc2c1OCC(=C)C	.	-23%
CC(C)Sc1nc2ccccc2n1CC(=O)O	i	-6%
COc1ccc2oc(C(=O)OCc3nnc(-c4ccccc4)o3)c(C)c2c1	i	-10%
CCOc1ccc(CN2C(=O)c3ccccc3C2C(=O)NCCc2ccc(OC)c(OC)c2)cc1 (stereo unspecified)	-4%	-7%
COc1ccc(/C=C2/SC(=S)N(CCCC(=O)Nc3cccc(O)c3)C2=O)cc1	?	10%
C[C@@H]1CN([C@H](C)CO)C(=O)CCCn2nncc2CO[C@H]1CN(C)Cc1ccc(Cl)c(Cl)c1	-9%	-20%
CC(=O)N1CCN(Cc2nc3cc(NC(=O)NC4CCCCC4)ccc3n2C)CC1	i	-7%
S=c1nccc(-c2ccc(Cl)cc2)[nH]1	-5%	-6%
CCOC(=O)c1ccc(NC(=O)CCS(=O)(=O)c2ccc3c(c2)oc(=O)n3C)cc1	0%	3%
O=C(NC1c2ccccc2-c2ccccc21)N1CCCCC1	7.1µM*	?
CC1(C)C(CSc2nc3ccccc3[nH]2)C1(Cl)Cl (stereo unspecified)	-7%	-9%
Cc1cc(NC(=O)CSc2cn(C)c3ccccc23)no1	-13%	-19%
CCS(=O)(=O)c1nc(S(=O)(=O)c2ccc(C)cc2)c(NC(C)c2ccccc2)s1 (stereo unspecified)	-24%	-13%
C#CCOCCOCCOCCNc1nc(N2CCN(C(=O)[C@H]([C@@H](C)CC)n3cc([C@@H](N)CC(C)C)nn3)CC2)nc(N2CCN(C(=O)[C@H](Cc3cc4ccccc4[nH]3)n3cc([C@@H](N)Cc4ccc(O)cc4)nn3)CC2)n1	i	-26%
OC1(C(F)(F)F)CC(c2ccc3ccccc3c2)=NO1 (stereo unspecified)	-24%	-19%
CC(C)c1ccc2c(c1)C(=O)NC(C)(C)C2	-10%	-20%
CCn1c2ccccc2c2nnc(SCC(=O)O)nc21	-6%[7.34 µM]	-5%[7.34 µM]
COc1ccc(S(=O)(=O)N(CC(=O)NCCCN(C)C)c2ccc(C)cc2)cc1OC	-1%	-11%
O=C(C(NS(=O)(=O)c1cccc2nsnc12)c1ccccc1)N1CCN(c2ccccc2)CC1 (stereo unspecified)	?	-16%
Cc1cc2cc(CN(Cc3cccs3)C(=S)NCC3CCCO3)c(=O)[nH]c2cc1C (stereo unspecified)	i	-21%

Taken from above:
COCCN(C(=O)c1ccc(C)o1)c1c(N)n(CC(C)C)c(=O)[nH]c1=O – VACV mCherry inh: -18%
CCCc1cc(=O)oc2cc(OCC(=O)NCCc3c[nH]c4ccc(OC)cc34)ccc12 – VACV mCherry inh: -7%
CCC1(C2CCN(C(=O)c3cc4ccccc4o3)CC2)NC(=O)N(CCc2scnc2C)C1=O (stereo unspecified) – VACV Venus inh: -10%
CC(C)(C)c1ccc(C(=O)NCC(=O)NCC(C)(C)N2CCOCC2)cc1 – VACV Venus inh: -10%
CCCN(C(=O)c1c(C)oc2ncn(CC(C)C)c(=O)c12)c1ccccc1C – VACV Venus inh: -12%

In the list so far, 4 have a tert-butyl group:
SMILES	VACV mCherry inh	VACV Venus inh
CC(C)(C)c1ccc(C(=O)NCC(=O)NCC(C)(C)N2CCOCC2)cc1	-15%	-10%
CC(C)(C)n1nnnc1C(c1ccccc1)N1CCN(c2ncccn2)CC1 (stereo unspecified)	i	-6%
CC(C)(C)C1CCc2c(sc3nc(SCC(=O)O)nc(N)c23)C1 (stereo unspecified)	i	3%
CC(C)(C)c1ccc(C2Sc3ccccc3NC3=C2C(=O)c2ccccc23)cc1 (stereo unspecified)	-8%	-5%

(list continues)
SMILES	VACV mCherry inh	VACV Venus inh
Cc1cc(C)n2nc(S(=O)(=O)NC(C)(C)C)nc2n1	1%	-1%
CC1(C)C2(C#N)C(=O)NC(=O)C12C#N (stereo unspecified)	i	-9%
CCC(=O)Oc1ccc(C(=O)Nc2ccc3c(c2)OCO3)cc1	-3%	4%
O=C(NC1CCCCC1)C(c1ccccc1F)n1c(=O)c(-c2cc3ccccc3[nH]2)nc2ccccc21 (stereo unspecified)	-14%	-15%
Cc1cc(=O)[nH]c(N/N=C/c2cc(C)n(-c3ccccc3)c2C)n1	i	-13%
Cc1cccn2c(=O)c(C(=O)N3CCN(c4ccccc4)CC3)cnc12	-16%	-4%
O=c1[nH]c(=O)n(CCC2=CCCCC2)c(O)c1C=NCc1cccnc1	-6%	0%
Cc1ccc(OCC(=O)OCC(=O)NC2CCCCCC2)cc1C	-17%	-17%

Compound activity deposited in PubChem by National Center for Advancing Translational Sciences (NCATS).
